# From PubChem
# PABP polyA inh: PABP-poly(A) binding inhibition; P11940; inhibition, % at 35 µM; 1% of 290,000 active; PABP-poly(A) RNA binding, fluorescence polarization;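 active means 50% or more with normal probe brightness, or confirmed in later tests; inconclusive means above 50% with abnormal brightness, or retests that disagree; inactive means below 50% or failed in later tests; about a fifth of its hits are not listed in these tables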;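 further: calls also rest on retests at 20 µM and on dose response follow-up; controls were probe without protein and protein plus probe with vehicle; some compounds called inactive have numbers as strong as hits; many hits fall short of the cut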
# Target sequence (P11940 whole entry, looked up): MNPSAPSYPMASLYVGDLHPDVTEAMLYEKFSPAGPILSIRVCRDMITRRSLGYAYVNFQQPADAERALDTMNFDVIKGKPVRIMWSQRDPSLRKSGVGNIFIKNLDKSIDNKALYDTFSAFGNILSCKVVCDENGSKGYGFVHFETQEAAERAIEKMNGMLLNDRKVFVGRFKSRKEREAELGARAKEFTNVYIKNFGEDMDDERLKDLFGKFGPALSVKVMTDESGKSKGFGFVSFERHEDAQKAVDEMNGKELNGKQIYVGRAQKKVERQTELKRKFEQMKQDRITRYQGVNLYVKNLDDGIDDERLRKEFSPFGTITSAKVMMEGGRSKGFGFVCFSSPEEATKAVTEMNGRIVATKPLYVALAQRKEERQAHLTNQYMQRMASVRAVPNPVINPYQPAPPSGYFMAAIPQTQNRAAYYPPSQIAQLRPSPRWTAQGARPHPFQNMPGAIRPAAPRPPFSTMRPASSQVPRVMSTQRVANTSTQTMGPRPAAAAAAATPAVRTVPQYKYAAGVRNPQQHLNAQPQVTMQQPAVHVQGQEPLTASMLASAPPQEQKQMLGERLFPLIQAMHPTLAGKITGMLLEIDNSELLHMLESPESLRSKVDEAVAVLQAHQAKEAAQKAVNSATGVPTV
# eIF4H FP inh: inhibitors of RNA binding by human eIF4H. eIF4H fluorescence polarization binding assay. 0.94% of 290,000 active. inhibition, % at 35 µM. Q15056;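 active means 50% or more with normal probe brightness, or confirmed in later tests; inconclusive means above 50% with abnormal brightness, or retests that disagree; inactive means below 50% or failed in later tests; about a fifth of its hits are not listed in these tables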;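 further: calls also rest on retests at 20 µM and on dose response follow-up; 0% = protein and probe with vehicle and 100% = probe without protein; strong numbers were not always called active; many hits fall short of the cut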
# Yeast UUG start: yeast start codon fidelity modulation | S. cerevisiae UUG-firefly luciferase reporter, luminescence/redox ratio | 0.13% of 350,000 active | activity score, % at 18.7 µM | AID 602363;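 active means replicate mean at a twofold rise or more, about +100% in these data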;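 further: firefly luciferase made from a UUG start codon reports start codon fidelity; reporter light over untreated wells divided by growth signal over untreated wells; some hits fall short of that in this replicate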
# Rce1 inhib: inhibitors of yeast Ras-converting enzyme | Q03530 | yeast membranes, quenched prenylated peptide cleavage fluorescence | calls only | 0.27% of 290,000 active;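 active means fall in fluorescence gain of 50% or more versus controls, with final raw signal at or below 3038400; inconclusive means same 50% fall but final raw signal above 3038400; inactive means fall in fluorescence gain under 50%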;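 further: plate controls were neutral control wells for no effect and wells lacking membranes for full effect; tested at 10 µM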
# Target sequence (Q03530 whole entry, looked up): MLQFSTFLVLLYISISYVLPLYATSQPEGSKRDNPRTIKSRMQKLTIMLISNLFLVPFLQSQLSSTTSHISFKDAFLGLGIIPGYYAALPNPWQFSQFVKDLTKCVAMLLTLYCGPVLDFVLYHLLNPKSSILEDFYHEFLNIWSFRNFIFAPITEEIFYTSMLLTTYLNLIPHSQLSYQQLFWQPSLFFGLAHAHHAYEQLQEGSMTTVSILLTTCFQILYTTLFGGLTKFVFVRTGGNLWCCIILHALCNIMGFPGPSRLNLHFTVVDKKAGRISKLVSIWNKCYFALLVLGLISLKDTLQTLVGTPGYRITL
# HIV Env fusion: HIV envelope-mediated fusion inhibition. HeLa-JRFL Env/CEM21 cell fusion, luciferase. AID 651610. 1.1% of 360,000 active. inhibition, % at 12.3 µM;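 active means mean replicate inhibition score of at least 50 and every replicate individually at or above 50; inconclusive means only one of the two criteria met; inactive means mean below 50 and not all replicates reaching 50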;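 further: 0% = plate neutral controls and 100% = maraviroc near 300 nM; one replicate is shown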
# CSC inhib: blocks cancer stem cells; inhibition, % at 7.5 µM; cancer stem cell-like cells viability, luminescence; 1.1% of 300,000 active;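 active means mean at 75% or more and at least half the replicates too; inconclusive means mean and replicates disagree; tested in HMLE shEcad cells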;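 further: 0% = median of negative and 100% = median of positive control wells; the first replicate is given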
# MT1-MMP act inh: inhibitors of human MT1-MMP activation. HT1080 RFP-PRO-GFP cells, GFP/RFP ratio fluorescence, overnight; percent of plate control window, DMSO zero. 0.061% of 360,000 active. GFP/RFP ratio change, % at 20 µM. P50281;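 active means GFP/RFP ratio change of at least 30% with cell ATP level not reduced by more than half and red fluorescence within 50% of control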; further: strong numbers were not always called active
#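 Material: RFP-PRO-GFP reporter HT1080 cells. Dosing: single-point 20 µM compound, 1% DMSO. Controls: DMSO and RFP-L50D-GFP cell wells. Timing: cells overnight before dosing, compound overnight, 37 °C, 5% CO2. Measure: GFP/RFP fluorescence ratio.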
# eIF4H FP inh retest: recorded beside eIF4H FP inh, whose call it bears; inhibition, %; compound at 20 µM; confirmation average;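 mean of two retest wells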
# PABP polyA inh retest: recorded beside PABP polyA inh, whose call it bears; inhibition, %; compound at 20 µM; confirmation repeats;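 mean of two retest wells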
# MT1-MMP act inh RFP: also measured in MT1-MMP act inh; calls as there; RFP signal change, %; measured here: RFP expression control read;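 0 = vehicle wells; hits needed this value within 50% of zero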
# * = called active by the depositor; i = inactive; ? = inconclusive; . = not tested or not shown. These rows are one share of the data, so the mix of outcomes need not match the whole.
SMILES,PABP polyA inh,eIF4H FP inh,Yeast UUG start,Rce1 inhib,HIV Env fusion,CSC inhib,MT1-MMP act inh,MT1-MMP act inh RFP,others
CC(=O)Nc1ccc(NC(=O)Cn2c(=O)n(-c3ccc(C)cc3)c(=O)c3oc4ccccc4c32)cc1,4.2,-3.5,5.3,i,-4.3,7.4,-2.4,-2.6,
c1ccc(CSc2ncnc3ccccc23)cc1,-6.2,-2.2,7.1,i,18.3,0.5,-8.0,-9.6,
C[C@H](C(O)c1ccccc1)N(C)C(=O)CN (stereo partly drawn),12.5,6.2,-8.4,i,13.0,7.2,1.5,3.0,
Cc1ccc(C(=O)N/C(=C\c2ccc(-c3ccccc3[N+](=O)[O-])o2)C(=O)NCCCN(C)C)cc1,?,?,.,i,3.0,-11.4,-15.8,0.7,
CC1(OC(=O)CCc2ccccc2)C(=O)C=C2C=C(c3ccc(C#N)cc3)N(C3CCCCC3)C=C2C1=O (stereo not drawn),37.3*,52.0,2.7,i,23.0,0.6,2.6,13.1,eIF4H FP inh retest=26.5;PABP polyA inh retest=56.3*
CCC(C)(C)NC(=O)C(c1ccco1)N(C(=O)c1csnn1)c1cccc(F)c1 (stereo not drawn),6.9,0.2,5.2,i,0.6,1.3,10.1,-2.9,
CCOC(=O)N1CCN(C(=O)c2cn(CC)c3ccc(S(=O)(=O)N4CCOCC4)cc3c2=O)CC1,7.7,-4.9,-16.8,i,-4.8,-17.5,0.6,4.7,
Brc1ccc(-c2noc(COc3ccc4c(c3)CCC4)n2)o1,1.2,-5.0,7.9,i,18.9,10.9,5.7,5.8,
CC1(C)CC(=O)C=C(Nc2ccccc2N)C1,4.1,-9.3,-11.3,i,-1.4,-19.6,-7.1,2.3,
CCCCNC(=O)C1(C)CCCCCN1Cc1cc2ccccc2o1 (stereo not drawn),.,.,3.5,.,22.6,.,-8.8,-6.9,
O=C(Oc1ccc(Cl)c2cccnc12)c1cccnc1,-5.5,2.9,-28.9,i,-227.9,72.0,1.8,-0.7,
CC(NC(=O)c1ccco1)C(=O)N1CCCCC1 (stereo not drawn),14.5,12.2,-6.8,i,0.8,-9.9,-5.4,1.3,
CCCc1ccc(OC(=O)c2ccc(O)cc2Cl)cc1,0.4,-13.7,-37.7,i,-221.0,1.2,0.3,-1.6,
N#Cc1cccc(NC(=O)NCCc2c[nH]c3ccccc23)c1,4.5,1.0,-11.2,i,-5.0,11.5,2.5,-10.2,
CN(NC1OC(=O)c2ccccc21)c1ncc(C(F)(F)F)cc1Cl (stereo not drawn),-0.8,-8.2,-6.1,i,-17.0,8.0,-2.4,-0.8,
Cc1cc(C)nc(N/N=C/c2cccc([N+](=O)[O-])c2)n1,-2.9,-2.3,-15.9,i,0.4,-5.9,3.5,5.2,
COc1ccc(-n2c(Cc3cccn3C)nnc2SCC(=O)Nc2cccc(F)c2)cc1,6.0,1.0,-14.8,i,-32.1,-6.6,-0.6,0.4,
CCOc1ncccc1C(=O)OCC(=O)NCc1ccc2c(c1)OCO2,4.2,-5.3,.,i,8.5,-19.8,-1.2,2.1,
CN(C)c1ccc(C(=S)N2CCOCC2)cc1,5.4,3.8,-20.4,.,-11.6,-17.7,6.3,2.2,
COc1ccc(OCc2nnc(SCC(=O)NC3CC4CCC3C4)o2)cc1 (stereo not drawn),0.6,3.4,0.5,i,-4.9,-3.7,0.3,4.2,
C=CCN(CC=C)Cc1c(C)[nH]c2c(C)c(C)ccc2c1=O,4.3,7.2,.,i,13.0,-4.5,-1.6,1.4,
CC(=O)Nc1ccc(OC(F)(F)Cl)cc1,4.0,1.3,.,i,13.9,-41.5,-0.3,1.9,
CC(NC(=O)c1cccc(S(=O)(=O)N(C)C)c1)c1nc2ccccc2[nH]1 (stereo not drawn),-7.1,4.1,.,i,-2.7,-15.0,.,.,
O=C(OCc1ccccc1)N1CCC2CC1c1ccc(N3CCOCC3)cc12 (stereo not drawn),.,.,-6.2,.,8.7,.,3.2,-1.6,
CN(Cc1nc(-c2ccc(C(F)(F)F)cc2)no1)C1CCOCC1,0.1,-11.5,-3.6,i,-6.7,16.4,-1.6,1.2,
Cc1ccc(S(=O)(=O)N2CCCC2C(=O)n2nc(C)cc2C)cc1 (stereo not drawn),5.0,-1.7,-11.9,i,-9.0,0.7,-0.9,1.3,
COc1ccc(C(C)NC(=O)C23CC4CC(CC(C4)C2)C3)cc1OC (stereo not drawn),6.0,-1.3,2.1,i,-7.1,0.8,-4.0,-2.4,
O=C(O)c1cccnc1SCc1cccc(Cl)c1,15.7,-5.6,.,i,2.6,-12.4,2.8,6.0,
O=C(Nc1cnn(Cc2ccc(F)cc2)c1)C(c1ccccc1)c1ccccc1,-3.4,4.3,-7.3,i,-28.8,14.1,-6.8,-8.3,
CCn1c(SCC(=O)OC)nnc1-c1ccccc1,2.7,-3.3,-12.4,i,7.7,-2.1,-2.3,2.0,
O=C(/C=C/c1ccco1)N1CCN(c2ccccc2)CC1,11.3,20.9,1.3,i,-2.1,-7.3,0.4,5.2,
CN(C(=O)c1cc(-c2cccs2)nn1-c1ccccc1)C1CCS(=O)(=O)C1 (stereo not drawn),.,.,0.7,.,5.3,.,-2.2,-1.5,
O=C(Cn1nc(C(=O)O)c2ccccc2c1=O)NCc1ccco1,-4.5,-5.8,.,i,-3.6,-2.9,1.5,8.3,
COc1ccc(N(CC(=O)N2CCN(c3cc(C)ccc3C)CC2)S(=O)(=O)c2c(C)noc2C)cc1,1.2,0.9,-3.9,i,21.6,73.3,-8.2,-12.1,
COc1ccc(Cl)cc1NC(=O)COC(=O)CCNS(=O)(=O)c1cccs1,.,.,-9.5,.,3.4,.,4.1,-0.9,
COc1ccc(NC(=S)Nc2ccc(S(=O)(=O)N3CCOCC3)cc2)c(OC)c1,4.1,-6.3,.,i,6.8,-5.9,2.1,4.2,
O=C(Cc1ccc(S(=O)(=O)N2CCOCC2)s1)N(Cc1ccccc1)c1ccccc1,.,.,-10.4,i,.,-9.7,5.9,-9.6,
CCOc1cc(-c2noc(CCC(=O)N3CCOCC3)n2)ccc1OC,-10.9,-3.7,-7.1,i,-82.9,-9.9,1.2,-0.1,
CCC(=O)c1cn(CC(=O)Nc2cccc(OC)c2)c2ccccc12,10.8,4.4,-10.2,i,0.1,-8.5,5.8,-0.5,
N#Cc1nc(-c2ccc(OCc3ccccc3)cc2)oc1NCCCN1CCOCC1,1.8,3.2,6.7,i,.,86.3*,1.3,-9.8,
O=C(NN=C1CCCC1)c1cc(-c2ccc(F)cc2)nc2ccccc12,-8.4,0.6,-22.0,i,-2.4,-7.5,3.7,4.5,
Cc1nn(C(C)C(=O)NCc2ccccc2Cl)c(=O)c2c1sc1ccccc12 (stereo not drawn),-2.7,-16.8,-10.5,i,-16.7,2.8,-1.2,-7.1,
C=CCc1cc(Cl)ccc1OCCNCCN1CCOCC1,8.6,20.0,.,i,4.6,15.8,0.5,0.6,
O=C(CN1C(=O)S/C(=C\C=C\c2ccccc2)C1=O)Nc1ccccc1C(=O)O,46.6,13.2,.,i,-14.6,22.1,6.6,3.9,
CCOC(=O)c1c(-c2cccc3ccccc23)csc1NC(=O)C1C2CCC(O2)C1C(=O)O (stereo not drawn),10.9,8.5,-5.9,i,-4.6,-0.5,-0.6,-3.5,
CCO[C@@H]1OC(C(=O)N2CCOCC2)=C[C@H](C2CC2)[C@H]1CCCO,6.8,3.4,-20.5,i,-1.4,-3.2,-3.1,-6.5,
C/C(=N/NC(=O)c1cc(C)[nH]n1)c1ccco1,6.3,1.9,.,i,-8.6,-0.2,-0.7,1.6,
COc1ccc(CNc2ncnc(N)n2)cc1,6.6,-0.8,-0.5,i,.,26.0,8.9,4.3,
CSc1nc2c(cc1C#N)CCC2,-0.9,-6.9,-12.6,i,8.5,-13.6,1.6,2.0,
CC(C)c1nc(SCC(=O)Nc2ccc3c(c2)OCCO3)c2c(=O)n(C)c(=O)n(C)c2n1,12.0,-3.1,-18.8,i,-20.6,.,-2.8,-0.2,

# 3 entries already listed, arranged by heavy-atom count, smallest number first:
SMILES,PABP polyA inh,eIF4H FP inh,Yeast UUG start,Rce1 inhib,HIV Env fusion,CSC inhib,MT1-MMP act inh,MT1-MMP act inh RFP,others
C/C(=N/NC(=O)c1cc(C)[nH]n1)c1ccco1,6.3,1.9,.,i,-8.6,-0.2,-0.7,1.6,
C=CCc1cc(Cl)ccc1OCCNCCN1CCOCC1,8.6,20.0,.,i,4.6,15.8,0.5,0.6,
CCO[C@@H]1OC(C(=O)N2CCOCC2)=C[C@H](C2CC2)[C@H]1CCCO,6.8,3.4,-20.5,i,-1.4,-3.2,-3.1,-6.5,

# Of the compounds above, 4 have two or more sulfur atoms.
SMILES,PABP polyA inh,eIF4H FP inh,Yeast UUG start,Rce1 inhib,HIV Env fusion,CSC inhib,MT1-MMP act inh,MT1-MMP act inh RFP,others
CN(C(=O)c1cc(-c2cccs2)nn1-c1ccccc1)C1CCS(=O)(=O)C1 (stereo not drawn),.,.,0.7,.,5.3,.,-2.2,-1.5,
COc1ccc(Cl)cc1NC(=O)COC(=O)CCNS(=O)(=O)c1cccs1,.,.,-9.5,.,3.4,.,4.1,-0.9,
COc1ccc(NC(=S)Nc2ccc(S(=O)(=O)N3CCOCC3)cc2)c(OC)c1,4.1,-6.3,.,i,6.8,-5.9,2.1,4.2,
O=C(Cc1ccc(S(=O)(=O)N2CCOCC2)s1)N(Cc1ccccc1)c1ccccc1,.,.,-10.4,i,.,-9.7,5.9,-9.6,

# Remaining list, next part:
SMILES,PABP polyA inh,eIF4H FP inh,Yeast UUG start,Rce1 inhib,HIV Env fusion,CSC inhib,MT1-MMP act inh,MT1-MMP act inh RFP,others
O=C(Cc1ccccc1Cl)NCCCn1ccnc1,7.4,8.0,-15.7,i,11.0,-13.6,3.5,10.2,
CCOC(=O)N1CCN(C(=O)c2cnsn2)CC1,-7.2,-16.8,-16.9,i,3.2,.,0.8,11.9,
OCC[C@@H]1C[C@@H](O)[C@H](O)[C@]2(OCCCc3ccccc32)O1,-3.1,-7.9,-23.6,i,15.9,-3.8,-0.1,1.0,
Cc1ccccc1NC(=O)NCC1CCN(Cc2cccc(Cl)c2)CC1,-1.6,-1.0,-12.3,i,4.7,-3.8,5.2,0.8,
Nc1nc(-c2ccccc2)cs1,-2.4,4.1,-6.4,i,.,-2.0,-0.7,2.4,
O=C(CCc1ccccn1)N1CCCC(N2CCN(c3cccc(C(F)(F)F)c3)CC2)C1 (stereo not drawn),8.0,3.3,-10.0,i,-2.6,-2.9,-0.6,-0.3,
CCOCCCN(C)C1CCN(C(=O)c2oc3ccccc3c2NC(=O)Cc2ccc([N+](=O)[O-])cc2)CC1,1.0,-11.2,-0.1,i,18.3,-7.1,-0.8,0.7,
COC(=O)Cn1c(=NC(=O)C(C)C)sc2c(C)cc(C)cc21,-10.1,-0.5,-9.0,i,-47.5,-12.5,6.1,-2.9,
COc1ccccc1CNS(=O)(=O)c1cc(C(=O)N(C)Cc2cccnc2)c(Cl)cc1Cl,.,.,-19.6,.,2.8,.,2.9,-7.5,
CCOc1ccccc1N(CC(=O)NC1CCCCC1)C(=O)c1nsc(Cl)c1Cl,-8.3,-10.6,.,i,50.0,-5.2,-7.3,-6.6,
COc1ccc(CCn2c(O)c(C3=c4ccccc4=NC3=O)sc2=S)cc1OC,5.1,-7.4,-3.5,i,-11.0,-6.8,6.9,4.5,
NNc1nc(-c2ccccc2)nc2sc3c(c12)CCCC3,-8.4,-14.5,-30.3,i,-127.7,7.3,-2.9,-0.5,
